TRPML1 agonist: activates the human TRPML1 channel; TRPML1-expressing cells, Ca2+ dye fluorescence, FDSS; host cell line not named in the record; reference of the full effect not given here; activation, % (test concentration not listed); 410,000 tested, 0.12% active; AID 624414; in the data active = activation above about 50%; inconclusive = about 30% to 50%; inactive = below about 30%; note: 0% is about no effect; the text of the record puts the active cut at 80%
Target sequence (Q9GZU1 whole entry, looked up): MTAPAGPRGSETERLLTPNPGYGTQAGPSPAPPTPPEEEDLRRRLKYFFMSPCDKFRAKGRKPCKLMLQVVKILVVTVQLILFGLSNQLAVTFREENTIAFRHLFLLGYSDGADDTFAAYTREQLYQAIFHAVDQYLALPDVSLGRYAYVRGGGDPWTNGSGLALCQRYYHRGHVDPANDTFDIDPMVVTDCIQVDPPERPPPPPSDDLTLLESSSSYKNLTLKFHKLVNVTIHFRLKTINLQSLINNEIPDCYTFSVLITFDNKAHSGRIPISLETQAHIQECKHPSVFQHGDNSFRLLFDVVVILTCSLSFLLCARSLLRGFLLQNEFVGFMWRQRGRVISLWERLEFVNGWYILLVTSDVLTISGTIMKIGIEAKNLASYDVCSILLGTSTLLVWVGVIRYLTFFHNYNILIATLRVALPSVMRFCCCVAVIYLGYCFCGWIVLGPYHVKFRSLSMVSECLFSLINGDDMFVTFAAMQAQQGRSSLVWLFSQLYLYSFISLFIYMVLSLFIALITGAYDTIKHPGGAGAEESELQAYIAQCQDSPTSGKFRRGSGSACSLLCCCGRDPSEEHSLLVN
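Calcium fluorescence on an FDSS kinetic reader gave the read-out. Tet-induced TRPML1-DL cells were plated overnight, dye-loaded (Ca8 with quencher, 45-90 min, room temperature, dark), then read 110 s after compound addition, and again 110 s after 4uM final 54-4 (EC80).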
TRPML1 inh: blocks the human TRPML1 channel; activity change, negative = inhibition, % (no concentration beside the values); TRPML1-inducible cells, Ca2+ dye fluorescence, FDSS; stronger effect = lower value; inhibition of EC80 agonist-evoked calcium signal; 390,000 tested, 0.02% active; Q9GZU1; in the data active means activity change below about -50%; inconclusive means about -30% to -50%; inactive means above about -30%;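 note: stimulus is agonist 54-4 at its EC80 concentration; % is set by controls: 0 for no effect and ±100 for the full control effect; compound concentration not given in the record; the text of the record puts the active cut at -80%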
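Calcium fluorescence in TRPML1-DL cells induced overnight with Tet: a 110 s read after compound pin addition, then a 110 s antagonist read after challenge with 54-4 at 4 uM final (EC80).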
D2 ag: human D2 receptor agonism in beta-arrestin assay | P14416 | DiscoveRx PathHunter D2 beta-arrestin, luminescence, 90 min; 100% = 57 uM dopamine signal | activation, % (concentration not given with the values) | 360,000 tested, 0.084% active | AID 624465; in the data active = activation above about 40%; inconclusive = about 15% to 40%; inactive = below about 15%; note: compound concentration not given in the record; the text of the record calls up to 30% inactive
Target sequence (P14416 whole entry, looked up): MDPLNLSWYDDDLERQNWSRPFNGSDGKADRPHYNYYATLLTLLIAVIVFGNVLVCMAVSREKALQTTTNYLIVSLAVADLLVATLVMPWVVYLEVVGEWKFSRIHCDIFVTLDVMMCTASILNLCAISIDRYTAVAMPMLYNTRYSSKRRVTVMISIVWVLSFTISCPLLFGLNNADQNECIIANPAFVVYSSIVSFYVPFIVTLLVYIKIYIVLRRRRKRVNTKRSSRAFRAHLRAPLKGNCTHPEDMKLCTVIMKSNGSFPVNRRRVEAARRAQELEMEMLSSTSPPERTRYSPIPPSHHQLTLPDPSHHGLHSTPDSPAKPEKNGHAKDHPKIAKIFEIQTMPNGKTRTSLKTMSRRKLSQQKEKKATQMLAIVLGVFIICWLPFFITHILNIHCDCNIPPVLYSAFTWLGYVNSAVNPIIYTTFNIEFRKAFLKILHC
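DiscoveRx PathHunter D2 beta-arrestin cells (2,100/well) attached overnight, then compound-stimulated 90 min at 37 C in HBSS/10 mM HEPES/0.1% Tween-20 buffer; beta-galactosidase complementation read by luminescence after 1 h at ambient temperature. Dopamine 57 uM final (EC100) as control.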
Six1-Eya2 blk: Six1/Eya2 interaction inhibition; Q15475+O00167; AlphaScreen GST-Six1/His-Eya2 binding, biochemical; stronger effect = lower value; control for the full effect not named in the record; activity change, % (test concentration not listed); 360,000 tested, 0.56% active; in the data active = activity change below about -65%; inconclusive = about -30% to -65%; inactive = above about -30%; note: % is set by controls: 0 for no effect and ±100 for the full control effect; compound concentration not given in the record
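AlphaScreen luminescence read after one hour at 37 °C in darkness. Pin-transferred compounds met GST-Six1 and His-Eya2 protein (5X stock 250 nM/500 nM) plus glutathione donor and Ni-chelate acceptor beads (5X, 50 ug/mL).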
PINK1 expr mod: PINK1 expression modulation | PINK1 immunofluorescence, high-content cytometry, 24 h | Potency, µM (top dose mostly 76.6 µM), for inactives: at the highest dose activation (PINK1 increase), hits mostly activators | 410,000 tested, 0.2% active; active = well fitted activation curve with a large enough effect; inconclusive = small, poorly fitted or top-dose-only effect; inactive = flat fitted curve, though single readings scatter; cell line not stated here;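 note: potency is the fitted concentration of half-maximal effect; % of control where 0% means no effect; nearly all actives have a fitted effect of over 65% in size; a mitochondrial uncoupler was the plate control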
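Decision-based qHTS: stable cells, 24 h exposure to five compound concentrations, CCCP as control. Fixed cells stained for PINK1 plus nuclear, mitochondrial and cell markers, cytometer read.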
CtBP-E1A blk: inhibitors of CtBP/E1A interaction | AlphaScreen GST-E1A/His-CtBP binding, 1536-well; stronger effect = lower value; control for the full effect not named in the record | activity change, % (no concentration beside the values) | 340,000 tested, 0.49% active; in the data active means activity change below about -65%; inconclusive means about -30% to -65%; inactive means above about -30%; note: % is set by controls: 0 for no effect and ±100 for the full control effect; compound concentration not given in the record
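Homogeneous bead-based format: GST-tagged E1A captured on glutathione donor beads, His-tagged CtBP on nickel acceptor beads; compounds precede bead addition by 2 h at 37 °C.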
An asterisk follows results filed as active; u = inconclusive; x = not tested or not shown; & = joins results of further samples; [ ] = another dose, or the depositor's remark.

SMILES | TRPML1 agonist | TRPML1 inh | D2 ag | Six1-Eya2 blk | PINK1 expr mod | CtBP-E1A blk
N#CCCN1CCN(C(=O)c2c(N)no[n+]2[O-])CC1 | -0.9 | 47 | 9.6 | 8 | 4.1% | -2
O=C(N[C@@H](Cc1ccccc1)C(=O)N1CCC2(CC1)NCCc1[nH]cnc12)c1cccc(Br)c1 | 0.1 | 0 | -3.9 | -1 | -0.8% | -8
Cn1/c(=N\NC(=O)C2CCCCC2)sc2ccccc21 | -1.0 | 3 | -1.7 | 3 | -0.8% | -3
CCCCn1c(SCC(=O)N2CCOCC2)nc2c1c(=O)n(C)c(=O)n2C | 0.0 | 12 | -3.5 | 3 | 2.9% | -5
Cc1cccc(/C=C/c2onc(C)c2S(=O)(=O)N2CCC(C(=O)NC(C)C)CC2)c1 | 0.2 | 0 | -2.9 | 6 | 4.4% | 5
O=c1c(-c2ccc3c(c2)OCCO3)coc2cc(O)cc(O)c12 | 0.5 | 15 | -5.2 | -6 | 9.1% | 0
CCCCNC(=O)c1cn(C)c2ccc(S(=O)(=O)N3CCCC3)cc2c1=O | 0.3&-0.6 | 5&7 | 3.0 | 11 | 4.1%&0.9% | x
Cc1ccc(C2(c3ccc(C)cc3)NC(=O)N(CC(=O)NCCCN3CCCC3=O)C2=O)cc1 | -0.3 | -8 | -1.1 | 3 | 1.9% | x
CCCC(=O)C1=C(c2cccc(OC)c2)N(C(=O)CCC)n2c(C)nnc2S1 | 2.2 | 31 | x | x | 0.5% | x
Cc1ccc(C)c(N2CCN(c3nc4ccc(Cl)cc4n4cnnc34)CC2)c1 | 1.7 | 18 | x | x | 0.8% | x
CCCc1cc(=O)[nH]c(SCC(=O)N2CCC(C(=O)OCC)CC2)n1 | -0.7 | -6 | -1.7 | 3 | 0.4% | 0
Fc1ccc(NC(=S)NNc2ncc(C(F)(F)F)cc2Cl)c(F)c1 | 1.0 | -3 | -12 | -9 | 10µM* | -1
COc1cc(NC(=O)CSc2nc3c(c(=O)[nH]2)CCCC3)cc(OC)c1OC | 1.6 | 12 | -5.8 | -1 | -0.1% | -19
COc1cccc(C2CC(c3ccc(C)cc3)Nc3nc(N)nn32)c1 (stereo not drawn) | 0.7 | 2 | -0.9 | 0 | -0.3% | 0
CC(C)(C)OC(=O)[C@H](Cc1ccccc1)NC(=O)c1nc[nH]c1C(=O)N[C@@H](CCCCN)C(=O)OC(C)(C)C | -0.2 | -7 | -2.7 | -6 | -1.1% | -1
O=C(CC(c1ccccc1)c1cc(Cl)ccc1O)N1CCCC1 (stereo not drawn) | 2.6 | 7 | 6.8 | -8 | 2.7% | 10
Fc1ccc(-c2noc3ncnc(NCCc4ccccc4)c23)cc1 | 2.1 | 24 | x | x | 2.9% | x
COc1ccc(-c2nc3ccccc3n2Cc2ccccc2)cc1 | 0.0&0.9 | 26&13 | -1.1 | -11 | 6.2%&-1.3% | -1
COc1ccc(C(=O)C(CO)Oc2ccccc2OC)cc1OC (stereo not drawn) | -0.5 | 7 | -2.7 | -1 | 7.1%[38.3 µM] | 0
COc1ccc(S(=O)(=O)NC(CC(=O)NCCc2ccc(OC)c(OC)c2)c2ccco2)cc1 (stereo not drawn) | -0.5 | 13 | -1.6 | 4 | 0.2% | 10
Cn1c(Cc2c[nH]c3ccccc23)n[nH]c1=S | 1.2 | 6 | -2.8 | -10 | -0.8% | -1
Cc1nc(NC(=O)c2ccccc2)nc2cc3c(cc12)OCO3 | 0.1 | -1 | -1.2 | 1 | 3.3% | -11
C[C@@]12C(=O)Nc3ccc(Br)cc3C(=O)N1[C@H]1c3cc(Br)ccc3OC[C@@H]1[C@@H]2c1ccccc1 | 0.8 | -9 | 0.2 | -13 | 1.9% | -18
O=C(CNc1cc(S(=O)(=O)N2CCOCC2)ccc1N1CCCC1)NCc1ccco1 | 0.0 | 8 | -0.7 | -16 | -2.0% | 2
C=CCn1c(COc2ccccc2-c2ccccc2)nnc1SCC(=O)NC(=O)NCc1ccco1 | 1.5 | 44 | -3.4 | -10 | 9.2%[38.3 µM] | -7
O=C(CSc1nnc2sc3ccccc3n12)NCc1ccco1 | -0.6 | 21 | -2.8 | 0 | u | 0
Oc1ccccc1-c1cc(-c2ccccc2)no1 | -0.1 | -2 | -7.4 | 0 | 6.1% | 0
CCCCC(=O)Nc1ccccc1N1CCN(c2ccccc2)CC1 | -0.2 | -6 | -2.1 | 0 | -0.1% | 7
CN(CCc1ccccc1)C(=O)c1ccc(NC(=O)Cc2ccc(NC(=O)C3CCCN(C(=O)CCc4ccccc4)C3)cc2)cc1 (stereo not drawn) | -0.6 | 3 | -1.7 | -4 | 1.6% | -3
CCOc1ccccc1NC(=O)c1ccccc1-c1nc(-c2ccccc2OC)no1 | 2.6 | -1 | -2.0 | -8 | -1.9% | 0
O=C(NCc1ccc2c(c1)OCO2)c1cc(-c2cc(Cl)ccc2O)n[nH]1 | -0.6 | -6 | -2.2 | -3 | 5.3% | 0
Cc1ccc(CN2C3=NCCN3c3ccccc32)cc1 | 0.2 | -6 | -0.2 | 7 | -1.0% | 4
O=C(c1ccc(Cl)cc1)N1CCCCC(Cl)C1=O (stereo not drawn) | 1.4 | 28 | -6.9 | 5 | 1.6% | 1
CC1SCC(=NOCc2c(Cl)cccc2Cl)CS1 (stereo not drawn) | 5.5 | 19 | -1.3 | 3 | u | 17
COc1ccc(-c2nnc(N3CCC(C)CC3)c3ccccc23)cc1 | -0.1 | 0 | -2.3 | -1 | 2.0% | -17
Nc1ccc(O)c([N+](=O)[O-])c1 | -0.5 | -12 | 9.9 | -2 | 2.1% | -11
Cc1ccc(C(=O)N/N=C\c2cc(Br)c(Br)o2)cn1 | 1.2 | 12 | 1.5 | -10 | 6.4% | -8
CN(C)CCN(C(=O)C1=COCCO1)c1nc2ccc(F)cc2s1 | 0.3 | 7 | -2.8 | 2 | 0.0% | 20
COc1ccc(C(=O)OCC(=O)NCC2CCCCC2)cc1F | -0.3 | 20 | 4.9 | 2 | 5.0% | -6
O=S(=O)(c1ccc(N2CCN(S(=O)(=O)c3ccc4c(c3)OCCO4)CC2)nc1)N1CCCC1 | 0.6 | -6 | 0.3 | -4 | -0.9% | -3

3 compounds picked at random from those above, as already listed:
SMILES | TRPML1 agonist | TRPML1 inh | D2 ag | Six1-Eya2 blk | PINK1 expr mod | CtBP-E1A blk
CN(CCc1ccccc1)C(=O)c1ccc(NC(=O)Cc2ccc(NC(=O)C3CCCN(C(=O)CCc4ccccc4)C3)cc2)cc1 (stereo not drawn) | -0.6 | 3 | -1.7 | -4 | 1.6% | -3
O=C(CSc1nnc2sc3ccccc3n12)NCc1ccco1 | -0.6 | 21 | -2.8 | 0 | u | 0
CCOc1ccccc1NC(=O)c1ccccc1-c1nc(-c2ccccc2OC)no1 | 2.6 | -1 | -2.0 | -8 | -1.9% | 0

Later entries
SMILES | TRPML1 agonist | TRPML1 inh | D2 ag | Six1-Eya2 blk | PINK1 expr mod | CtBP-E1A blk
Cc1ccccc1Nc1nc(CSc2nnc(-c3ccoc3C)n2C)cs1 | 1.4 | -6 | -3.4 | -9 | x | -5
Cc1ccc(C(NC(=O)N2CCOCC2)=C(Cl)Cl)cc1F | 0.0 | 0 | -0.9 | -3 | x | 11
O=C(NCC(c1cccnc1)N1CCN(c2ccccc2)CC1)c1ccc2c(c1)OCO2 (stereo not drawn) | -0.8 | -5 | -2.5 | -12 | 1.3% | -5
C[C@@H](C(=O)NCc1c(F)cccc1Cl)N1C(=O)N2CCc3c([nH]c4ccccc34)[C@@]2(C)C1=O | x | x | 4.5 | -16 | 1.4% | -13
COCC(=O)N(C)[C@H]1C[C@H]2c3cc(Oc4ccccc4C)ccc3CCN2C(=O)[C@H]1[C@H](C)O | -0.6 | 0 | 0.5 | 6 | 2.7% | 1
COc1cc2nc(CSc3ncn[nH]3)[nH]c(=O)c2cc1OC | -0.5 | 4 | 1.0 | 39 | 0.6% | -4
Cc1cc(C)c(NC(=O)C2CCN(c3cnccn3)CC2)c(C)c1 | -0.7 | 6 | -0.9 | 4 | -1.4% | 2
CC(=O)c1ccc(NC(=O)CSc2nc(N)c3cc4c(nc3n2)CCCC4)cc1 | 2.6 | -4 | 5.8 | -24 | 16% | 0
NC(=O)c1ccc(-n2nnnc2Oc2ccccc2)cc1 | 0.5 | -19 | -1.9 | 3 | 1.1%[38.3 µM] | 7
CC(=O)C[C@@H](O)CC(=O)[C@@H]1OC(=O)CCCCCCc2ccccc21 | 0.0 | 8 | -7.1 | 8 | -0.8% | -18
COc1cc([N+](=O)[O-])ccc1NC(=O)N1CCCCCC1 | -0.7 | 6 | -3.2 | -8 | 0.8% | 3
CCc1ccc(CNC(=O)Cn2nc(-c3ccc(Cl)cc3)ccc2=O)cc1 | 4.1 | 0 | x | x | -5.2% | x
CN1CCC(N(C)C(=O)COc2ccccc2-c2ccccc2)CC1 | -1.0 | 6 | -4.4 | 0 | -1.7% | -3
COC(=O)CCN(C(=O)c1ccc(OC(C)=O)cc1)c1ccccn1 | -0.5 | -5 | -0.2 | 1 | -1.7% | 3
O=C1[C@@H]2Cc3c([nH]c4ccccc34)C(c3ccccc3)N2C(=O)CN1C1CCN(Cc2ccccc2)CC1 (stereo partly drawn) | -0.3 | -9 | 2.3 | -7 | -3.5% | -29
COc1ccc(C(=O)NCCNC(=O)c2ccc(C)nc2)cc1 | 0.8 | 21 | -2.7 | 6 | 2.7% | -1
O=C(Nc1nnc([C@H]2C[C@H](O)[C@@H](CO)O2)s1)Nc1ccc(F)cc1F | 0.1 | x | 2.4 | 4 | 0.7% | 7

Of the compounds above, seven contain fluorine.
SMILES | TRPML1 agonist | TRPML1 inh | D2 ag | Six1-Eya2 blk | PINK1 expr mod | CtBP-E1A blk
Fc1ccc(NC(=S)NNc2ncc(C(F)(F)F)cc2Cl)c(F)c1 | 1.0 | -3 | -12 | -9 | 10µM* | -1
Fc1ccc(-c2noc3ncnc(NCCc4ccccc4)c23)cc1 | 2.1 | 24 | x | x | 2.9% | x
CN(C)CCN(C(=O)C1=COCCO1)c1nc2ccc(F)cc2s1 | 0.3 | 7 | -2.8 | 2 | 0.0% | 20
COc1ccc(C(=O)OCC(=O)NCC2CCCCC2)cc1F | -0.3 | 20 | 4.9 | 2 | 5.0% | -6
Cc1ccc(C(NC(=O)N2CCOCC2)=C(Cl)Cl)cc1F | 0.0 | 0 | -0.9 | -3 | x | 11
C[C@@H](C(=O)NCc1c(F)cccc1Cl)N1C(=O)N2CCc3c([nH]c4ccccc34)[C@@]2(C)C1=O | x | x | 4.5 | -16 | 1.4% | -13
O=C(Nc1nnc([C@H]2C[C@H](O)[C@@H](CO)O2)s1)Nc1ccc(F)cc1F | 0.1 | x | 2.4 | 4 | 0.7% | 7

Compound activity (PubChem)
